Compound activity deposited in PubChem BioAssay by several laboratories.
Mtb H37Rv: M. tuberculosis H37Rv growth inhibitors, H37Rv strain (AID 1626) | M. tuberculosis H37Rv growth inhibition; higher % means a stronger effect | one-dose inhibition, % at 10 µM; IC50 in µM for titrated hits | 220,000 tested, 0.95% active;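 active = confirmed in a dose series; inconclusive = inhibition above 80% but not taken into the dose series; inactive = below 80% or under 30% at every dose of the series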;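 note: bacteria incubated seven days before Alamar blue readout; 0% = bacteria only wells and 100% = bacteria with antibiotic wells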
Mtb bLac sens: beta-lactam sensitization of Mtb H37Rv; 330,000 tested, 0.27% active; M. tuberculosis H37Rv growth with meropenem, percent inhibition; hits of this screen are not shown here; inhibition, % at 25 µM;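 active = about 74% or more and at least 40 points above the plate without the antibiotic, then above 30% in a dose series; inconclusive = first-round hits that could not be retested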;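 note: growth measured after seven days incubation then overnight dye step; 0% = bacteria only wells and 100% = bacteria with antibiotic; twin plates without the antibiotic show which effects depend on it; some results filed as inactive read as strong as hits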
YopH inh: inhibitors of Yersinia enterocolitica YopH tyrosine phosphatase | fluorescence Ex485/Em525 | inhibition, %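 (about 10 µM by stock and volumes)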 | 140,000 tested, 0.16% active | AID 898;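 active = inhibition of 50% or more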;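 note: controls were vehicle for no effect and minimum signal wells for full effect; inactives centre near -20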
Arbovirus inh: arbovirus infection inhibition; 200,000 tested, 0.37% active; inhibition, % at 10 µM; AID 1251; arbovirus infection cell-based antiviral screen;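 active = inhibition from about 30%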;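 note: bluetongue infection of BSR cells; cell survival read as ATP light after 72 h; 0% = infected wells without compound and 100% = uninfected wells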
RecA splice inh: inhibitors of M. tuberculosis RecA intein splicing; inhibition, %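 (about 9 µM by stock and volumes)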; 290,000 tested, 0.75% active; AID 2221; cell-free RecA intein splicing, fluorescence; P9WHJ3; in the data active = inhibition above about 30%; inconclusive = no clear call, values can overlap the other calls;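 note: 0% = vehicle wells and 100% = reference inhibitor control wells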
Target sequence (P9WHJ3 whole entry, looked up, canonical isoform): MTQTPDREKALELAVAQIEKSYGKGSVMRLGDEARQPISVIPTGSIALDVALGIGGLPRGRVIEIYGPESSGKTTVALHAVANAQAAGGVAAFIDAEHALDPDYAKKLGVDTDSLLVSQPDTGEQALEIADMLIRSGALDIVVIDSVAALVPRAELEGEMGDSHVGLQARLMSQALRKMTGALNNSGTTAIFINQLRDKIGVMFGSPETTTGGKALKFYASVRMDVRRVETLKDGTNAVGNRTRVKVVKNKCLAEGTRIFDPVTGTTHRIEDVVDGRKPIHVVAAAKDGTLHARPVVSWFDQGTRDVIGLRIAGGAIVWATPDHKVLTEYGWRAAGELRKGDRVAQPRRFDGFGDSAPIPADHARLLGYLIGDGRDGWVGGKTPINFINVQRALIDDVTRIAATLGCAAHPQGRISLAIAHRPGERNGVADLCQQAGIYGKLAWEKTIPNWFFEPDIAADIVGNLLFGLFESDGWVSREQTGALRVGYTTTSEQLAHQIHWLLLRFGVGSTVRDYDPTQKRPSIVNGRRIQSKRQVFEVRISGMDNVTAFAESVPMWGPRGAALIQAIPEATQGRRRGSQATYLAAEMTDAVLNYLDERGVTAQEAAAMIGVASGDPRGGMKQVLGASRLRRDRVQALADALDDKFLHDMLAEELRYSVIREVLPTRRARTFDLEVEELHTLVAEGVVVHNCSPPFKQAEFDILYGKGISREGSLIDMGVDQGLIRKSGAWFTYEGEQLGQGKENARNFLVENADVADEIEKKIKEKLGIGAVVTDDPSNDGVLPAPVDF
Arbovirus inh repeat: also measured in Arbovirus inh; calls as there; inhibition, %; measured here: 10K subset replicate screen; many hits read low in the repeat;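 first of two repeat runs on a subset; 0% = infected and 100% = uninfected wells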
Starred values were filed as active, the others as inactive; ? = inconclusive; nt = not tested or not shown.

SMILES	Mtb H37Rv	Mtb bLac sens	YopH inh	Arbovirus inh	RecA splice inh	others
CCOc1ccccc1NC(=O)C1(S(=O)(=O)c2ccc(Cl)cc2)CC1	nt	-5	nt	nt	2.3
c1ccc(COC2CCCN(Cc3nc(Cc4ccccc4)no3)C2)cc1 (centres undefined)	8%	4	nt	8	0.9
O=C(Cn1c(-c2cscn2)nc2ccccc21)Nc1ccc(Cl)cc1	9%	67	0	-9	5.2
Cc1ccc(CSc2ccc(-c3ccco3)nn2)cc1	1%	2	-26	3	1.7
Cc1ccc(/C(=N\O)c2oc3c(C)c4oc(=O)cc(C)c4cc3c2C)cc1	nt	99	-8	-25	3.3
CCOc1cc(NC(=O)C2CCCCC2)c(OCC)cc1NC(=O)c1ccco1	-4%	-1	-13	1	-0.9
Cc1cc(NC(=O)/C=C/C(=O)N(c2ccccc2C)C(C(=O)NC2CCCC2)c2ccc(F)cc2)no1 (centres undefined)	nt	4	-3	-32	3.7
O=C(NC(=S)Nc1ccccc1N1CCCCC1)c1ccco1	15%	33	-24	13	11
Cc1ccc2cc(CN(CCCO)S(=O)(=O)c3cccc4nsnc34)c(=O)[nH]c2c1C	-2%	-16	-19	6	1.1
CC(=O)Nc1ccc(N(C(=O)c2ccco2)C(C(=O)NC2CCCC2)c2ccc(N3CCOCC3)cc2)cc1 (centres undefined)	-1%	0	nt	0	0.6
COc1ccc(C(=O)NCC2CCCN2S(=O)(=O)c2cccs2)cc1OC (centres undefined)	nt	0	nt	nt	-1.2
O=C(NCCNS(=O)(=O)c1ccc(C(F)(F)F)cc1)N1CCOCC1	-1%	4	nt	nt	-0.3
COc1ccc(-c2ccc(C#N)c(SCC(=O)Nc3sc4c(c3C#N)CCC4)n2)cc1	2%	4	-16	-14	-0.1
CC(C)(C)NC(NC(=O)Cc1ccccc1)C(Cl)(Cl)Cl (centres undefined)	-5%	-2	-24	2	1.8
COc1ccccc1CCC(=O)NNC(=O)c1ccccc1	nt	-5	nt	nt	1.1
CSc1ncc(CN2CCCCC2C(=O)Nc2ccc(Oc3ccccc3)nc2)cn1 (centres undefined)	nt	8	nt	nt	-3.8
C=CCNS(=O)(=O)c1ccc2nsnc2c1	4%	-1	-24	1	1.6
CCC(C)NC(=O)C(Cc1ccccc1)NS(=O)(=O)c1ccc2c(c1)oc(=O)n2C (centres undefined)	nt	3	nt	nt	-1.3
S=c1[nH]nc(CN2CCCCC2)n1Cc1ccccc1	5%	-8	nt	3	2.1
Cc1nn(-c2cccc(Cl)c2)c2nc(C(F)(F)F)[nH]c(=O)c12	-4%	2	-25	30	-2.5

Brought forward from above: 4 entries, then new ones.
SMILES	Mtb H37Rv	Mtb bLac sens	YopH inh	Arbovirus inh	RecA splice inh	others
C=CCNS(=O)(=O)c1ccc2nsnc2c1	4%	-1	-24	1	1.6
CCC(C)NC(=O)C(Cc1ccccc1)NS(=O)(=O)c1ccc2c(c1)oc(=O)n2C (centres undefined)	nt	3	nt	nt	-1.3
S=c1[nH]nc(CN2CCCCC2)n1Cc1ccccc1	5%	-8	nt	3	2.1
Cc1nn(-c2cccc(Cl)c2)c2nc(C(F)(F)F)[nH]c(=O)c12	-4%	2	-25	30	-2.5
CCC1CN(S(=O)(=O)c2ccc3c(c2)NC(=O)CC(=O)N3)c2cc(Cl)ccc2O1 (centres undefined)	nt	2	nt	nt	0.3
CCN(c1ccc(OC)cc1)S(=O)(=O)c1ccc(-c2cc(C)no2)s1	nt	2	nt	nt	12
CCOC(=O)C1C(c2cccs2)NC(=O)N(C)C1(O)C(F)(F)F (centres undefined)	2%	-1	0	20	-0.3
O=C(Nc1ccc2nc3n(c(=O)c2c1)CCCC3)c1ccc(Cl)nc1	nt	-1	nt	nt	-0.3
COc1ccc(OC)c(C2N(c3ccc(Cl)cc3)C(=O)C3CCCN32)c1 (centres undefined)	4%	-4	-37	0	3.1
Cc1ccc(-n2ncc3c(=O)n(CC(=O)N4CCCc5ccccc54)cnc32)cc1C	4%	nt	-19	3	-5.7
CCC1SC2=NC(C)=C(C(=O)OCCOC)C(/C=C/c3ccccc3OC)N2C1=O (centres undefined)	-11%	2	-33	2	6.9
O=C(Nc1ccc(Cl)cc1)Nc1ccc2c(c1)OCO2	nt	-4	nt	nt	-1.6
O=C(CN(CCc1ccccc1)C(=O)Cn1nnc(-c2cccs2)n1)NCc1ccco1	-3%	-6	-28	5	4.2
COCCOC(=O)C1=C(C)NC(SCC(=O)NC(C)(C)C)=C(C#N)C1c1ccco1 (centres undefined)	2%	nt	-8	-5	-0.9
CCOCc1cnc(C)nc1NCC(=O)c1c(C)[nH]c2cc(C)ccc12	2%	0	-32	1	0.6
C=CCN(C(=O)c1csnn1)C(C(=O)NC(C)(C)C)c1ccncc1 (centres undefined)	5%	-2	nt	2	-2.1
Nn1c(SCC(=O)Nc2cc(C(F)(F)F)ccc2Cl)nncc1=O	nt	3	nt	nt	3.4
Cc1ccc(-c2nnn(CC(=O)NC3CCN(Cc4ccccc4)CC3)n2)cc1	-3%	-2	-22	-8	-1.8
CCC1CCCCN1Cc1nc2ccccc2c(=O)n1CC(C)=O (centres undefined)	10%	-2	nt	nt	1.1
CCOC(=O)C1(Cc2ccccc2C(F)(F)F)CCN(CC(O)CO)CC1 (centres undefined)	-8%	-5	nt	-6	-0.9
CCN1C(=O)[C@H]2[C@@H](c3ccc(-c4ccc(OC)cc4)c(OC)c3)N3CCCC[C@@]3(C(=O)OC)[C@H]2C1=O	nt	-5	nt	nt	8.0
CCCC/C(C)=N/NC(=O)c1cn(-c2ccccc2)nc1-c1ccccc1	-1%	7	-30	-11	4.1
COc1ccc(CC(=O)Nc2ccc(C(=O)NC(C)(C)C)cc2)cc1OC	5%	-7	nt	3	-3.2
COc1cccc(N2CCN(C(=O)c3ccc(Cl)c(NC4=NC5CS(=O)(=O)CC5S4)c3)CC2)c1 (centres undefined)	nt	1	nt	nt	-4.0

Arranged by count of non-hydrogen atoms (smallest number first): 3 of the compounds above
SMILES	Mtb H37Rv	Mtb bLac sens	YopH inh	Arbovirus inh	RecA splice inh	others
CCC1CCCCN1Cc1nc2ccccc2c(=O)n1CC(C)=O (centres undefined)	10%	-2	nt	nt	1.1
CCCC/C(C)=N/NC(=O)c1cn(-c2ccccc2)nc1-c1ccccc1	-1%	7	-30	-11	4.1
Cc1ccc(-c2nnn(CC(=O)NC3CCN(Cc4ccccc4)CC3)n2)cc1	-3%	-2	-22	-8	-1.8

Continuation:
SMILES	Mtb H37Rv	Mtb bLac sens	YopH inh	Arbovirus inh	RecA splice inh	others
COc1ccc(-c2cc(C(=O)NCCCN3CCOCC3)c3cc(C(C)C)ccc3n2)cc1	nt	14	nt	nt	-0.3
CCOP(=O)(OCC)/C(=C/N1CCCCC1)NC(=O)c1ccccc1	5%	0	nt	2	-0.9
CCC(C)[C@H]1COCCS(=O)(=O)N1Cc1ccccc1 (some centres undefined)	nt	-4	nt	nt	0.4
CN(Cc1ccccc1)C(=O)c1ccccc1NC(=O)C1=CSCCO1	nt	2	nt	nt	-6.5
COc1cc(NC(=O)CCCl)cc(-n2cnnn2)c1	-4%	0	nt	2	0.1
Cc1c(O)ccc(/C(Cc2ccc3ccccc3n2)=N\O)c1O	-1%	-23	-19	6	1.9
C/C(=N\NC(=O)c1ccc2c(c1)OCO2)c1ccc(NS(C)(=O)=O)cc1	nt	-4	nt	nt	0.1
CN(CCCNC(=O)C1CCC(=O)N1Cc1ccccc1Cl)c1ccccc1 (centres undefined)	1%	-3	0	-4	-0.1
COc1cccc(C(C(=O)NC2CCCCC2)N(C(=O)CNC(=O)c2ccco2)c2cccnc2)c1 (centres undefined)	nt	-2	nt	nt	0.8
CCCCOC(=O)CSC(=S)N(C)Cc1cccs1	10%	4	-35	-9	4.6
COc1ccccc1NC(=O)COC(=O)/C=C/c1ccccc1[N+](=O)[O-]	1%	56	-3	0	-0.8
Cc1ccc(S(=O)(=O)N2CCN(C(=O)c3cccs3)CC2)c(C)c1	8%	-1	nt	12	13
COC(=O)c1cccc(N=Cc2c(O)n(Cc3ccc(F)cc3)c(=O)[nH]c2=O)c1	1%	18	nt	nt	-3.2
CCn1nnc(NC(=O)c2ccc(-c3ccc(Cl)cc3)o2)n1	20µM*	97	-32	-2	1.5
CC(C)Oc1ccc(/C=N/NC(=O)C(CSCc2ccccc2)NC(=O)c2ccc([N+](=O)[O-])cc2)cc1 (centres undefined)	-5%	?	-6	-5	0.7
Cc1cc(NC(=O)CN2C(=O)NC(C)(c3ccc(Cl)cc3)C2=O)no1 (centres undefined)	2%	2	nt	4	-0.6
O=C(CC1Nc2ccccc2NC1=O)Nc1ccc2c(c1)OCO2 (centres undefined)	4%	2	nt	-7	-3.2
NC(=O)c1c(NC(=O)Cc2ccccc2)sc2c1CCN(Cc1ccccc1)C2	nt	1	nt	nt	-57
O=C(CSc1nc(Cc2ccccc2)nc2ccccc12)Nc1ccc2c(c1)OCCO2	-4%	14	-37	7	1.6
Cc1nc2ccc(NC(=O)C(F)(F)F)cc2o1	>100µM*	97	-22	0	-3.3
CN(C)CCCN(C(=O)c1ccc(S(=O)(=O)N2CCCCCC2)cc1)c1nc2c(F)cc(F)cc2s1	nt	-7	nt	nt	2.9
COc1ccccc1-c1cc(C(F)(F)F)nc(N2CCCCC2)n1	1%	-6	-10	-6	16
O=C1c2ccccc2C(=O)N1CCc1nc2ccccc2c(=O)n1CCCn1ccnc1	-7%	0	-25	3	1.5	Arbovirus inh repeat=5
O=C(OCCN=C1NS(=O)(=O)c2ccccc21)C1CC(=O)N(c2ccc(Cl)cc2)C1 (centres undefined)	-8%	-7	6	1	-0.8	Arbovirus inh repeat=-1
Cc1oc(-c2ccccc2F)nc1CS(=O)(=O)CC(=O)NCCCN1CCc2ccccc2C1	-3%	5	-5	-4	0.6
O=C(CNS(=O)(=O)c1ccc(Br)s1)N1CCC(N2CCCCC2)CC1	-3%	-10	-34	-1	-3.8
CC(C)(C)c1cc(-c2nc(N)nc(N)n2)cc(C(C)(C)C)c1	3%	9	-19	-24	-4.1
O=c1cc(NCc2ccccc2)c2ccccc2o1	0%	-6	-25	10	-3.0
CCC(=NCCCO)c1c(O)n(-c2ccc(OC)cc2)c(=O)[nH]c1=O	-4%	-10	-21	-1	8.3
COc1ccc(-c2cc3c(=O)n(CC(=O)NCCCN4CCC(N5CCCCC5)CC4)nc(C)n3n2)cc1	nt	1	nt	nt	-5.7
O=S(=O)(c1ccccc1)N1CCN(C(=S)NCCc2ccccc2)CC1	nt	5	nt	nt	4.0
COc1ccc(/C(O)=C2/C(=O)C(=O)N(Cc3ccco3)C2c2cccs2)cc1 (centres undefined)	-9%	-4	-53	1	1.6
CCOc1ccc(S(=O)(=O)N2CCN=C2c2ccccc2)c(C)c1C	nt	5	nt	nt	4.8
CCOC(=O)c1sc(=S)n(C)c1NC(=O)c1ccc(C(C)(C)C)cc1	80%	92	nt	nt	12
N=c1ccccn1CC(O)COc1ccccc1 (centres undefined)	-1%	-1	-12	-7	-0.7
CCCCNc1nc(CC)c2c(c1C#N)CCCC2	13%	-4	-13	12	4.7
CC1=C(C(=O)OC(C)C)[C@@H](c2ccc(C)o2)NC(=O)N1	5%	1	-24	0	-6.5
O=C1CC(NC23CC4CC(CC(C4)C2)C3)C(=O)N1c1ccc2c(c1)OCO2 (centres undefined)	3%	0	-7	-4	0.7
COc1ccc(/C=C2/N=C3CCCCCN3C2=O)cc1	-4%	0	nt	2	-5.1
O=C1Nc2cc(C(=O)NCC3CCCO3)ccc2S/C1=C/c1ccccc1F (centres undefined)	nt	-2	nt	nt	-10
O=C(NCCc1c[nH]c2ccccc12)OCCSS(=O)(=O)O	-3%	-3	nt	-10	1.4
O=C1c2cccc3cccc(c23)C(=O)N1Nc1ccccc1	1%	-5	nt	-10	-2.6
CCOCCN1CCN(c2c(C)c(C)nc3cc(-c4cc(OC)cc(OC)c4)nn23)CC1	16%	2	-11	-1	0.5
Cc1cccc(N(Cc2cc3ccc(C)cc3[nH]c2=O)S(=O)(=O)c2ccccc2)c1	nt	-1	nt	nt	4.4
NC(=S)Nc1cccc(Cl)c1	0%	2	nt	nt	0.0
CCCNC(=O)c1ccc(N2CCC3(CC2)CC(c2cccc(Br)c2)=NO3)c(NC(=O)c2cccc(C)c2)c1	nt	-1	nt	nt	1.6
CC(=O)Nc1ccc(Cl)c(-c2nc3ncccc3o2)c1	nt	8	nt	nt	0.4
COc1ccc(/C=C/C(=O)c2ccc(O)cc2)cc1COc1ccc(F)cc1	3%	-5	4	-32	36*

A portion of the library; rates above refer to the full screens.
